# Source: PubChem BioAssay
# GIV-Gai inh – inhibitors of GIV peptide binding to Galpha-i3, primary screen, biochemical, fluorescence polarization, FITC-GIV GBA peptide, rat Galphai3 | Guanine nucleotide-binding protein G(i) subunit alpha-3 (Rattus norvegicus), P08753 | 90 min; stronger effect = lower value; scaled: aluminum fluoride 0%, vehicle 100% | percent of control (FP), % (no concentration beside the values) | actives 0.42% (n = 210,000);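 active = replicate mean at 85% of control or lower, very high polarization wells dropped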;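 note: wells of about 15 µL received 100 nL stock; the first replicate is given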
# Target sequence (P08753 whole entry, looked up): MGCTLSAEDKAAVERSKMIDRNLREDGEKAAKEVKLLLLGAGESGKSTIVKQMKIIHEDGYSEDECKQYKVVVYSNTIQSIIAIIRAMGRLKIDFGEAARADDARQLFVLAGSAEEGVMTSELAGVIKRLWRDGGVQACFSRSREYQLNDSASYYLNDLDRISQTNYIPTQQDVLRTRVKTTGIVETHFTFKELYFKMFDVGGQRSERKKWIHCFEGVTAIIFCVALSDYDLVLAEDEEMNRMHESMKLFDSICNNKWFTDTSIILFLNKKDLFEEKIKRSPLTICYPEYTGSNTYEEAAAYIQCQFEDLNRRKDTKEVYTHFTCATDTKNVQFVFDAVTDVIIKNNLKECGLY
# * hit, by the source's call.
GIV-Gai inh	Molecule
104	O=C1N(Cc2ccccc2)c2ccccc2C12Oc1ccccc1C1CC(c3ccco3)=NN12 (stereo not given)
103	O=S(=O)(C1CC1)N1CCC(Oc2cc(N3CCCCC3)ncn2)C1 (stereo not given)
103	CCc1ccccc1NC(=O)Nc1cccc(CCc2nc3ccccc3n2C)c1
111	O=C(COc1nc2ccccc2s1)N1c2ccccc2CCc2ccccc21
97	CC(=O)N1CCCC(c2nc(CNC(=O)C3CCC3)cs2)C1 (stereo not given)
103	C=CCOc1ccc(C2C(C(=O)OCC)=C(C)N=c3s/c(=C\c4ccc(C(=O)O)cc4)c(=O)n32)cc1 (stereo not given)
100	CCOc1cc(-c2nc3sc4c(c3c(=O)[nH]2)CCCC4)cc(Br)c1OCCOc1ccc(C)cc1
98	Cc1ccc(-c2c(C(=O)Nc3cccc(-c4nc5ncccc5o4)c3C)oc(=O)c3ccccc23)cc1
100	Cc1ccc(-c2noc(C3CC3)n2)cc1S(=O)(=O)N1CCC(C(=O)N2CCCCC2)CC1
103	COC(=O)CCCCC1SCC(NC(=O)c2ccccc2)C1O (stereo not given)
105	Cc1csc(-c2cc(S(=O)(=O)NCC3CCCCC3)cn2CC(=O)N2CCCCC2)n1
110	COc1ccccc1NC(=O)CSc1nc2n[nH]c(C)c2c(=N)n1-c1ccc(Br)cc1

# The closing 2 entries of the part before lead into the next:
GIV-Gai inh	Molecule
105	Cc1csc(-c2cc(S(=O)(=O)NCC3CCCCC3)cn2CC(=O)N2CCCCC2)n1
110	COc1ccccc1NC(=O)CSc1nc2n[nH]c(C)c2c(=N)n1-c1ccc(Br)cc1
109	COc1ccc(-c2nc(-c3cc(OC)cc(OC)c3)[nH]c2-c2ccc(OC)cc2)cc1
98	CCOc1ccc(OCC)c(S(=O)(=O)N2CCN(c3nc(C)cc(N(C)C)n3)CC2)c1
109	CCOC(=O)C1=C(C)NC2=C(C(=O)C(C(=O)OCC)C(c3cccc(OC)c3)C2)C1c1ccc2c(c1)OCO2 (stereo not given)
111	CCOC(=O)N1CCC(NC(=O)c2cc3nc(-c4ccc(OC)c(OC)c4)cc(C(F)(F)F)n3n2)CC1
103	CNC(=O)C1CCCN(S(=O)(=O)c2c(C)nn(CC(=O)NC(C)(C)C)c2C)C1 (stereo not given)
100	O=C(CSc1ccccn1)N1CCN(C(=O)CSc2ccccn2)CC1
104	Cc1cc(C)c2c(n1)sc1c(=O)n(CC(N)=O)cnc12
102	O=C1COc2cc(S(=O)(=O)NC3CC3)c(Cl)cc2N1Cc1noc(C2CC2)n1
105	Cc1csc(-c2csc(S(=O)(=O)NCCc3cccs3)c2)n1
99	CCCNC(=O)N1c2ccccc2NC2=C(C(=O)CC(C)(C)C2)C1c1ccccc1 (stereo not given)
100	Cc1nc(N2CCN(c3ccccn3)CC2)c2c(C)c(C(=O)NCc3ccco3)sc2n1
103	O=C(Cc1ccccc1F)Nc1ccc(-c2cn3c(C(=O)N4CCCC4)csc3n2)cc1

# An excerpt from above in order of number of heavy atoms, largest number first:
GIV-Gai inh	Molecule
109	CCOC(=O)C1=C(C)NC2=C(C(=O)C(C(=O)OCC)C(c3cccc(OC)c3)C2)C1c1ccc2c(c1)OCO2 (stereo not given)
100	Cc1nc(N2CCN(c3ccccn3)CC2)c2c(C)c(C(=O)NCc3ccco3)sc2n1
99	CCCNC(=O)N1c2ccccc2NC2=C(C(=O)CC(C)(C)C2)C1c1ccccc1 (stereo not given)
103	CNC(=O)C1CCCN(S(=O)(=O)c2c(C)nn(CC(=O)NC(C)(C)C)c2C)C1 (stereo not given)
105	Cc1csc(-c2csc(S(=O)(=O)NCCc3cccs3)c2)n1
104	Cc1cc(C)c2c(n1)sc1c(=O)n(CC(N)=O)cnc12

# The list continues.
GIV-Gai inh	Molecule
99	O=C(CSc1nnc2c3sc(N4CCCC4)nc3ncn12)Nc1ccc2c(c1)OCCO2
107	CCOC(=O)c1nnn(-c2nonc2N)c1CN(C)C
110	CCCS(=O)(=O)c1c(S(=O)(=O)CCC)c2c3ccccc3ccn2c1C(=O)N/N=C/c1cccc2ccccc12
102	O=C(CSc1nc2c(sc(=S)n2Cc2ccco2)c(=O)n1-c1ccccc1)N1CCCC1
105	O=C(c1ccc2c(c1)OCCCO2)N1CCc2ccccc21
105	CCCS(=O)(=O)c1c(S(=O)(=O)CCC)c2ccc(C(C)=O)cn2c1C(=O)c1ccccc1
100	Cc1nc(-c2csc(S(=O)(=O)Nc3ccc(Cl)cn3)c2)no1
95	O=C(CN1C(=O)C(C(=O)N2CCCC2)Sc2ccccc21)NCCC1=CCCCC1 (stereo not given)
99	Cc1noc(Cn2cnc3c([nH]c4ccc(F)cc43)c2=O)n1
109	CCOC(=O)C1=C(C)NC2=C(C(=O)c3ccccc32)C1c1cc(Br)ccc1OCC(=O)O (stereo not given)
101	COc1ccc(NC(=O)CSc2nc(N)c(C#N)cc2C#N)c([N+](=O)[O-])c1
108	CC1=C(C(=O)Nc2ccc(Cl)cc2)C(c2ccco2)C(C#N)=C(SCC(N)=O)N1 (stereo not given)

# Other results
GIV-Gai inh	Molecule
107	CN(C)c1ccc(CNS(=O)(=O)c2ccccc2-c2nc(-c3ccccc3)no2)cc1
126	CCOC(=O)C1C(=O)NC(SCC(=O)Nc2ccc(Cl)cc2)=C(C#N)C1c1ccccc1Cl (stereo not given)
96	Cc1nn(-c2ccc3nncn3n2)c(C)c1CCC(=O)Nc1ccc(F)cc1F
111	COc1cc(C2C(C(=O)OC3CCCC3)=C(C)NC3=C2C(=O)CC(c2cccs2)C3)cc(OC)c1OC (stereo not given)
114	CS(=O)(=O)NCc1nc2cccnc2n1Cc1ccccc1
94	CCOC(=O)c1c(S(=O)(=O)N2CCCC(C(=O)Nc3cccc(C)c3)C2)c(C)n(CC)c1C (stereo not given)
99	CC1CCCN(c2nc(C(=O)NC(C)C)cs2)C1 (stereo not given)
97	COc1cc(Nc2nc(SCC#N)nc3ccccc23)cc(OC)c1
109	O=C(c1cccs1)N1CCN(c2nc(CN3CCCC3)cs2)CC1
105	CC(=O)N1CCCN(C(=O)NCC2CCCO2)CC1 (stereo not given)
116	COc1ccccc1C(=O)Nc1ccc2nc(SCC(=O)NCC3CCCO3)sc2c1 (stereo not given)
108	CCOC(=O)c1ccc(N2C(=O)CC(NCc3ccc(OC)cc3)C2=O)cc1 (stereo not given)

# (listing goes on)
GIV-Gai inh	Molecule
114	COc1cc(C2C(C#N)=C(N)Oc3n[nH]c(C)c32)cc(OC)c1OC(=O)N1CCOCC1 (stereo not given)
109	CCOc1ccc(N/C(SCc2ccccc2C)=C(/C#N)C(=O)NCc2ccco2)cc1
104	Cc1ccc(C(=O)N2CCc3cc(CNS(=O)(=O)c4ccc(F)c(Cl)c4)ccc32)cc1
106	CC(=O)Nc1ccc(-c2cc(C(=O)NC(C)c3ccccc3)c3ccccc3n2)cc1 (stereo not given)
108	CCOC(=O)COc1ccc2ccccc2c1C1NC(=O)NC(C)=C1C(=O)OCC (stereo not given)
104	CN(Cc1ccccc1)C(=O)c1ccc(N2CC3CC(C2)c2cccc(=O)n2C3)c(NC(=O)Cc2c(F)cccc2Cl)c1 (stereo not given)
100	COC(=O)c1ccc2c(=O)n(-c3ccc(OC)cc3)c(N3CCOCC3)nc2c1
101	O=C(Cc1c(F)cccc1Cl)Nc1nc2c(s1)CN(S(=O)(=O)c1ccccc1)CC2
102	CCc1cc(C2CCCN2S(=O)(=O)CC)on1 (stereo not given)
109	O=C(O)CC(NS(=O)(=O)c1cccc2nsnc12)c1ccccc1 (stereo not given)
102	COCCNC(=O)CN1c2ccccc2NC2=C(C(=O)CC(C)(C)C2)C1c1ccccc1 (stereo not given)
102	O=c1cc(-c2ccccc2)nc2n1CCN2CCCN1CCCC1

# Next part:
GIV-Gai inh	Molecule
108	COc1cccc(/C=c2\sc3nnc(-c4ccccc4)n3c2=O)c1
98	COc1ccc(CCNc2ccc(C(=O)N3CCCC3)cc2S(=O)(=O)Nc2cccc(C(F)(F)F)c2)cc1OC
104	O=S(=O)(Cc1nc(-c2ccccc2)no1)c1ccccc1
108	Cc1ccc(-n2[nH]c(C)c(C=Nc3c(Cl)cc(Cl)cc3Cl)c2=O)cc1C
116	CCOC(=O)c1c(NC(=O)C(C)Sc2nnc(CNC(=O)COc3ccc(Cl)cc3)n2C)sc2c1CCC2 (stereo not given)
103	C=CCn1nc2ccc(S(=O)(=O)N3CCSCC3)cn2c1=O
99	COC(=O)C1(O)/C(=C(\O)c2ccc(OC)cc2)C(=O)C(=O)N1c1ccccc1 (stereo not given)
103	CCOc1ccc(NC(=O)c2sc3ncn(CC(=O)Nc4cccc(C(F)(F)F)c4)c(=O)c3c2C)cc1
102	CCOC(=O)CSc1nc2sc(C(=O)OCC)c(C)c2c(=O)n1Cc1cccs1
99	CC1(C)CC2CC(C)(CN2c2ncnc3ccc(Br)cc23)C1 (stereo not given)
114	O=C(CSc1nc(N2CCCCC2)nc2ccccc12)Nc1ccc(Br)cc1
95	CC(C)C(=O)NCCc1csc(C2CCN(C(=O)NC(C)(C)C)CC2)n1

# (further entries)
GIV-Gai inh	Molecule
100	CCCCC(=O)Nc1cnc(N2CCNCC2)c(C(=O)N(C)CCCC)c1
103	CNC(=O)c1ccc(-c2nc3cc(NS(=O)(=O)c4cccc(Cl)c4)ccc3n2C)cc1
108	Cc1ccc(S(=O)(=O)NCc2nnc(NC(=O)c3ccc(NC(=O)C(F)(F)F)cc3)s2)cc1
104	O=C(NCCN1CCOCC1)c1ccc2ccnc(N3CCN(c4ccc(F)cc4)CC3)c2c1
99	Cc1ccc(-c2nc(C)cc(OCC(=O)Nc3ccccc3C)n2)cc1
110	COc1ccc(/C=C/C(=O)NCC2(c3ccc(OC)c(OC)c3)CCOCC2)cc1OC
104	COc1cc(C2CC(=O)Nc3c2ccc2ccccc32)cc(Br)c1OC (stereo not given)
100	O=C(NCc1ccc2c(c1)OCO2)C1CCN(c2ncc(-c3ccccc3)cn2)CC1
109	COc1ccc(C(OCC2OC(n3cc(C)c(=O)[nH]c3=O)CC2O)(c2ccccc2)c2ccc(OC)cc2)cc1 (stereo not given)
97	O=S(=O)(Nc1ccc(F)cc1)c1ccc2c(c1)-c1oncc1CO2
121	N#Cc1cc2[nH]c3ccccc3c2n(-c2ccc([N+](=O)[O-])cc2)c1=N
110	Cc1nc(N2CCOCC2)c2c(C)c(C(=O)Nc3ccc(F)cc3F)sc2n1

# Carrying on.
GIV-Gai inh	Molecule
111	CN1CCN(CCCNC(=O)c2ccc(Cn3c(=S)[nH]c4ccc(Br)cc4c3=O)cc2)CC1
101	COc1ccc(Br)cc1C1N(c2ccc(C)cc2)CCN1c1ccc(C)cc1
105	CCOC(=O)CN1C(=O)C(O)(CC(=O)c2cccs2)c2ccccc21 (stereo not given)
109	CC(=O)N1CCN(CC(O)Cn2c3ccccc3c3ccccc32)CC1 (stereo not given)
98	O=C(c1c[nH]c2ccc(S(=O)(=O)N(CCCN3CCOCC3)Cc3ccco3)cc2c1=O)N1CCc2ccccc21
105	O=C(NCc1ccc(Br)cc1)c1nnc2ccc(-c3ccccc3)nn12
99	O=C(CCn1c(N2CCCC2)nc2ccsc2c1=O)NCc1ccc2c(c1)OCO2
97	CCc1ccc(NC(=O)NC(C(=O)N2CCc3ccccc32)C(C)C)cc1 (stereo not given)
107	CCOC(=O)c1c(NC(=O)C(C)Sc2nnc(CNC(=O)c3ccc(C)c([N+](=O)[O-])c3)n2C)sc2c1CCC2 (stereo not given)
106	CCc1onc(C)c1C1CCCN1Cc1cccc(OC)c1OC (stereo not given)
108	O=S(=O)(c1ccc(-c2cnc(C3CCC3)o2)s1)N1CCc2ccccc2C1
110	O=C(O)c1ccc2nc(-c3ccc(C#Cc4ccccc4)cc3)c(-c3ccc(C#Cc4ccccc4)cc3)nc2c1

# As entered above.
# GIV-Gai inh, `O=C(O)c1ccc2nc(-c3ccc(C#Cc4ccccc4)cc3)c(-c3ccc(C#Cc4ccccc4)cc3)nc2c1` : 110
# GIV-Gai inh, `CC(=O)N1CCN(CC(O)Cn2c3ccccc3c3ccccc32)CC1` (stereo not given) : 109
# GIV-Gai inh, `CCc1ccc(NC(=O)NC(C(=O)N2CCc3ccccc32)C(C)C)cc1` (stereo not given) : 97

# Remaining list, next part.
GIV-Gai inh	Molecule
99	O=C(Nc1ccc2c(c1)OCCO2)C1CCN(c2ncc(-c3ccc(F)cc3)cn2)CC1
108	CCOC(=O)C1=C(N)N(c2ccc(S(N)(=O)=O)cc2)C2=C(C(=O)CCC2)C1c1ccc(SC)cc1 (stereo not given)
106	CCOC(=O)C1=NN(c2ccc(C)cc2)C2C(=O)N(c3ccccc3Cl)C(=O)C12 (stereo not given)
103	Cc1ccc(C2C(=O)N(C3CCCC3)CC(=O)N2CC2COc3ccccc3O2)cc1 (stereo not given)
108	CCOc1ccc2nc(SCCNS(=O)(=O)c3cccc([N+](=O)[O-])c3)sc2c1
116	CC(C)c1ccc(S(=O)(=O)Nc2ccc3oc4c(c3c2)CCCC4)cc1
106	COCCNC(=O)c1ccc(Cn2c(SCc3ccncc3)nc3ccc(Br)cc3c2=O)cc1
104	Cc1ccc(C)c(-c2csc(Cc3nc(-c4ccc5c(c4)OCO5)no3)n2)c1
98	CC(C)CNC(=O)CCn1c(=O)c2ccccc2n2c(=O)n(CC(=O)NC3CCCC3)nc12
104	Cc1ccc(-c2noc(CS(=O)(=O)c3cc(C)c(C)cc3C)n2)cc1
106	CC1(C)Cc2c(C#N)c(SCc3ccccc3)nc(N3CCOCC3)c2CO1
105	COC(=O)c1cc(NC(=O)CSc2nc3[nH]ncc3c(=O)n2-c2ccc(Cl)cc2)cc(C(=O)OC)c1

# (listing goes on)
GIV-Gai inh	Molecule
103	CCOc1ccc(-n2c(=S)sc3c2nc(SCC(=O)NCc2ccccc2)n2c4ccccc4nc32)cc1
111	O=C(CSc1nc(NCc2ccc(Cl)cc2)c2ccccc2n1)NCc1ccco1
114	COC(=O)CN1C(c2cc(OC)c(OC)c(OC)c2)=Nc2ccc(Cl)cc2C1c1ccccc1 (stereo not given)
110	CCOC(=O)c1cnc2c(OC)cccc2c1N1CCN(c2ccccc2OC)CC1
122	Cc1ccc(-c2csc(Cc3nc(-c4ccc(Cl)cc4)no3)n2)cc1
105	O=[N+]([O-])/C(C(Cl)=C(Cl)Cl)=C(/Sc1ccccc1)N1CCCCC1

# Only part of the results is shown; count on the stated rates, not on these rows.
